GIV Gai3 FP = inhibitors of GIV peptide binding to Galpha-i3, primary screen, biochemical, fluorescence polarization, FITC-GIV GBA peptide, rat Galphai3; Guanine nucleotide-binding protein G(i) subunit alpha-3 (Rattus norvegicus), P08753; 90 min; active compounds read low; scaled: aluminum fluoride 0%, vehicle 100%; 210,000 tested, 0.42% active; percent of control (FP), % (no concentration beside the values);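 active = replicate mean at 85% of control or lower, very high polarization wells dropped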;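 also: wells of about 15 µL received 100 nL stock; the first replicate is given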
Target sequence (P08753 whole entry, looked up): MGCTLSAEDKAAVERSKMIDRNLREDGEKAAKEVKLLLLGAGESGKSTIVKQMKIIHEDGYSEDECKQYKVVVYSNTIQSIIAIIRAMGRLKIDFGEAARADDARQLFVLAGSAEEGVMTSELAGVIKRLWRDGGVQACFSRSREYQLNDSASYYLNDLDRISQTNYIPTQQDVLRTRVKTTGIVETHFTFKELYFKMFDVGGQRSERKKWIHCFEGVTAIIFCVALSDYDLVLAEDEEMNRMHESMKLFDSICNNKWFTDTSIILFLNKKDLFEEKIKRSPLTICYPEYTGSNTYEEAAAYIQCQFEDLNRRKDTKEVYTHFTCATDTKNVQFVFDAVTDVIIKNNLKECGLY
Sa growth inh = S. aureus growth inhibition at 42 and 30 °C, primary screen, LtaS inhibitor project, RN4220, two temperatures. OD600, 20 h, 42 °C; active compounds read low. relative growth, % (no concentration beside the values). 170,000 tested, 0.53% active. AID 720641, 2013;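 active = growth at 42 °C up to 50% and 20 or more points under that at 30 °C, or under 10% at both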;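 also: 300 nL library stock went into each well; scaled to the means of positive and negative controls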
HCMV NEC inh = inhibitors of HCMV UL50-UL53 interaction, biochemical, HTRF; 190,000 tested, 0.15% active; inhibition, % (concentration not given with the values); normalized percent inhibition; HCMV UL50-UL53 nuclear egress complex (human cytomegalovirus); AID 1918969, 2023;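 active = both replicates at 50% or more, plus weaker picks with an unusually low signal ratio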;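 also: stock transfer was 100 nL into about 20 µL; 0% = negative control wells and 100% = wells with untagged competitor protein; inactives centre near -12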
Sa growth inh second temp = second read-out of Sa growth inh, no call of its own (marks repeat the call); relative growth, %; measured here: growth at 30 °C;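 optical density after 20 h as mean of two plates; 100% = untreated growth and lower means inhibition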
* marks the source's active call; other numbers are inactive results; · = no result given. Compounds were not picked by outcome; 0.79% or so of the library scored in one or more.

SMILES	GIV Gai3 FP	Sa growth inh	Sa growth inh second temp	HCMV NEC inh
Cc1noc2ncnc(N3CCCC(C(=O)NC(C)C)C3)c12 (stereo not given)	100	96	85	·
COc1ccc(CC(=O)NCC(c2cccs2)S(=O)(=O)c2ccc(F)c(C)c2)cc1 (stereo not given)	101	122	101	·
COc1ccc(CNC(=O)CCc2nnc3ccc(NCCCN4CCCC4=O)nn23)cc1	103	98	103	3
Cc1ccccc1C(=O)N(Cc1ccc(N(C)C)cc1)Cc1ccco1	102	103	82	-14
O=S(=O)(NC1CC1)c1ccc(F)cc1	·	95	95	-8
O=C(CCC1COc2ccccc2O1)NC1CCCCC1 (stereo not given)	107	96	105	6
CCOc1ccc2c(c1)cc(C(=O)Nc1cc(OC)ccc1OC)n2C	102	·	·	-12
O=C(COc1ccccc1)NCc1ccco1	97	96	93	-5
Cc1ccc(C)c(NC(=O)c2cnc3sc(N4CCOCC4)nn3c2=O)c1	105	103	100	·
O=C(OCC(=O)N1CCCC1)c1cc(Cl)ccc1Cl	·	103	94	-25
Cn1c(=NC(=O)C2=NN(C3CCS(=O)(=O)C3)C(=O)CC2)sc2ccccc21 (stereo not given)	·	100	102	-7
COc1ccc2oc(=O)c(-c3nc(-c4ccc(Oc5ccccc5)cc4)cs3)cc2c1	102	·	·	8

Some of the entries so far, as a markdown table:
| SMILES | GIV Gai3 FP | Sa growth inh | Sa growth inh second temp | HCMV NEC inh |
| --- | --- | --- | --- | --- |
| O=C(CCC1COc2ccccc2O1)NC1CCCCC1 (stereo not given) | 107 | 96 | 105 | 6 |
| CCOc1ccc2c(c1)cc(C(=O)Nc1cc(OC)ccc1OC)n2C | 102 | · | · | -12 |
| O=C(COc1ccccc1)NCc1ccco1 | 97 | 96 | 93 | -5 |
| Cc1ccc(C)c(NC(=O)c2cnc3sc(N4CCOCC4)nn3c2=O)c1 | 105 | 103 | 100 | · |
| O=C(OCC(=O)N1CCCC1)c1cc(Cl)ccc1Cl | · | 103 | 94 | -25 |
| Cn1c(=NC(=O)C2=NN(C3CCS(=O)(=O)C3)C(=O)CC2)sc2ccccc21 (stereo not given) | · | 100 | 102 | -7 |

Later entries:
SMILES	GIV Gai3 FP	Sa growth inh	Sa growth inh second temp	HCMV NEC inh
COc1cccc2sc(N(Cc3cccnc3)C(=O)c3ccco3)nc12	98	110	91	·
CC1=C(c2ccc(Cl)cc2)S(=O)(=O)NC1=NCCCN1CCN(c2cc(C)ccc2C)CC1	99	113	67	-8
COC(=O)c1ccc(OC(=O)c2ccc(Br)o2)cc1	97	105	93	-15
O=C(CCc1cn(Cc2ccccc2)c2ccccc12)NCCc1ccc(Cl)cc1	102	130	91	·
Cc1ccc(N/C=C2/Cn3cccc3C2=O)cc1	·	112	92	-31
COc1ccccc1OC(C)C(=O)N1CCN(C/C=C/c2ccccc2)CC1 (stereo not given)	102	97	90	·
CCN(CC)S(=O)(=O)c1ccc2nc(NC(=O)c3cccnc3)sc2c1	112	65	73	·
COc1ccc(OCCOC(=O)c2ccc(SC)cc2OC)cc1	·	79	90	-17
COc1ccccc1C(=O)Nc1cc2[nH]c(=O)[nH]c2cc1C	109	108	83	-27
NC(=O)C1CCN(C(=O)Cn2ncc3c4ccccc4n(Cc4ccc(F)cc4)c3c2=O)CC1	105	100	81	·
O=C(O)c1nn(Cc2coc(-c3cccs3)n2)c(=O)c2ccccc12	·	80	89	-40
CCOc1ccc(-c2cc(C(=O)N3CCN(c4cccc(C(F)(F)F)c4)CC3)c3ccccc3n2)cc1	101	112	88	·

Quoted from the results shown (3 entries):
SMILES	GIV Gai3 FP	Sa growth inh	Sa growth inh second temp	HCMV NEC inh
NC(=O)C1CCN(C(=O)Cn2ncc3c4ccccc4n(Cc4ccc(F)cc4)c3c2=O)CC1	105	100	81	·
O=C(O)c1nn(Cc2coc(-c3cccs3)n2)c(=O)c2ccccc12	·	80	89	-40
CCOc1ccc(-c2cc(C(=O)N3CCN(c4cccc(C(F)(F)F)c4)CC3)c3ccccc3n2)cc1	101	112	88	·

Other records follow:
SMILES	GIV Gai3 FP	Sa growth inh	Sa growth inh second temp	HCMV NEC inh
COc1cc(/C=C2\C(=O)NC(=O)N(c3ccc(Cl)cc3)C2=O)ccc1OCC(=O)O	108	·	·	-23
Cc1ccc2cc3c(nc2c1)N(S(=O)(=O)c1ccc(OC2CCCC2)cc1)CC3	98	·	·	-14
CCOC(=O)c1c(C)oc2c1c(C(c1ccc(OC)cc1)N1CCOCC1)c(O)c1ccccc12 (stereo not given)	102	110	83	·
O=C(NC(c1ccccc1)c1ccccc1)C1CCN(S(=O)(=O)c2cccnc2)CC1	101	·	·	-30
Cc1ccsc1CN(C)CC(=O)NC1CCCC1	·	106	91	-36
COCCCn1c(SCC(=O)NCc2ccccc2)nc2c(sc3ccccc32)c1=O	109	103	94	·
CC1CCCN(C(=O)c2ccc(NC(=O)C(O)(c3ccccc3)c3ccccc3)cc2)C1 (stereo not given)	105	117	90	-7
O=C(CNC(=O)c1ccco1)OCN1C(=O)c2ccccc2C1=O	99	95	96	-32
Cc1ccc(C2NCCc3c2[nH]c2ccccc32)cc1 (stereo not given)	101	·	·	-17
COC(=O)CNc1nc(C2CC2)nc2c1nnn2Cc1ccccc1Cl	101	97	108	18
CC(=O)N/N=C(/c1ccccc1)C(O)c1ccccc1 (stereo not given)	101	120	101	-18
COC(=O)c1cc(S(=O)(=O)NCC2CCN(Cc3ccc(Cl)cc3)CC2)cn1C	102	101	84	-16
O=C(CSc1nc(Nc2ccc(F)c(F)c2)c2ccccc2n1)c1ccc(Cl)cc1	101	97	90	·
CCN(CC)S(=O)(=O)c1ccc2c(c1)c(=O)c(C(=O)N1CCN(c3cccc(Cl)c3)CC1)cn2C	106	111	84	-25
c1ccc(CN2CCCN(Cc3ccccc3)C2c2cccs2)cc1	108	105	106	6
CCN1C(=O)c2ccccc2S(=O)(=O)c2ccc(C(=O)N3CCN(c4cc(C)ccc4C)CC3)cc21	104	·	·	-8
CC(=Nc1cccc(Cl)c1)c1sc2ccccc2c1O	105	·	·	-49
O=C(Cn1cnc2ccccc2c1=O)Nc1ccccc1C(=O)NCc1ccc2c(c1)OCO2	·	106	97	14
CNCc1nnc(-c2ccccc2)o1	97	90	89	-9
Cc1ccc(C)c(N2CCN(C(=O)CN3C(=O)c4ccccc4Sc4ncccc43)CC2)c1	108	·	·	-222
CC(C)(C)c1ccc(-c2nnc(-c3ccccc3NC(=O)/C=C\C(=O)O)o2)cc1	99	73	92	27
CCCCC(=O)Nc1cc(S(=O)(=O)CC)ccc1OCc1cc(=O)n2oc(C)cc2n1	92	·	·	1
O=C(CN1CCC(N2CCCCC2)CC1)c1ccc(F)cc1	106	83	103	5
O=C(c1cc(-c2ccncc2)n[nH]1)N1CCCC(C(=O)N2CC=C(c3ccccc3)CC2)C1 (stereo not given)	107	·	·	-5
O=C(OCCS(=O)(=O)c1ccc(C(F)(F)F)cn1)c1ccc(Cl)c(Cl)c1	104	116	98	14
CCn1c(-c2ccc(C(C)(C)C)cc2)n[nH]c1=S	107	114	80	-21
Cc1cc(C)c(NS(=O)(=O)c2ccc(NC(=O)c3nc4ncccn4n3)cc2)c(C)c1	103	142	58	-21
Cc1nnc(NC(=O)c2nc3nccc(C)n3n2)o1	·	82	93	-23
CCOC(=O)Cc1csc(NC(=O)C(C)(C)C)n1	105	90	87	-20
CC1CCC(NC(=O)C2(C)Cn3c(cc4sccc43)C(=O)N2C2CCCCC2)CC1 (stereo not given)	95	·	·	-7
N#CCCO/N=C/c1ccco1	102	102	102	-14
O=c1[nH]c(CSc2ccccn2)nc2ccccc12	104	102	97	6
CN1/C(=C2\C=NN(C)P2(=O)N2CCCCCC2)C(C)(C)c2ccccc21 (stereo not given)	·	128	97	-6
Cc1nc(N2CCC(C)CC2)c2c(C)c(C(=O)O)sc2n1	106	·	·	-25
CC(C)(C)C(=O)NCCc1cn2ccccc2n1	104	88	87	-39
CCOC(=O)c1sc2nc(CC(=O)OC)nc(N3CCC(C)CC3)c2c1C	103	·	·	-4
CC(C)c1ccc(NC(=O)c2cc(S(=O)(=O)NC3CCCCC3)ccc2F)cc1	99	123	71	·
S=C(c1cn(Cc2ccc(Cl)cc2)c2ccccc12)N1CCCC1	113	129	88	·
Cn1ccsc1=NC(=O)c1cccnc1	·	89	90	9
CN(C)c1ccc(C2CC(=O)C=C(NCCc3ccccn3)C2)cc1 (stereo not given)	100	115	105	-3
NCCc1nc(-c2ccccc2)cs1	105	112	91	-23
CCn1nnc2cc(C(=O)Nc3cccc(Cl)c3F)ccc21	·	77	94	-30
CCc1ccc(NC(=O)CC2C(=O)N(c3cccc(C)c3)C(=O)N2CCC(C)C)cc1 (stereo not given)	100	85	77	·
COc1cc(OC)cc(C(=O)OCC(=O)N2CCC(C(N)=O)CC2)c1	·	112	103	8
Cc1cc(=O)[nH]c(SC(C)C)n1	101	92	81	-20
CC1SCC(=O)N(c2ccc(Br)cc2)C1=O (stereo not given)	101	·	·	-9
Cc1nc2c3ccccc3n(CC#N)c(=O)n2n1	101	98	95	7
COc1ccc(-c2nnc3sc(-c4cccnc4)nn23)cc1OC	102	·	·	-15
COc1ccc(-c2noc(CSc3nnc(-c4ccncc4)n3-c3ccc(C)cc3)n2)cc1	108	109	89	-4
CC[n+]1ccc(C)c2cc(C(F)(F)F)ccc21	96	86	92	·
Clc1ccc2nc(-c3ccccn3)c(Nc3ccc4c(c3)OCO4)n2c1	106	·	·	-7
O=C1CCCc2cc(S(=O)(=O)NCc3ccccc3Cl)ccc2N1	107	·	·	-12
C=CCn1c(=O)c(=O)n(Cc2ccc(C(=O)NC(C)CCc3ccccc3)cc2)c2ccccc21 (stereo not given)	99	·	·	-2
NC(=O)Cn1ccn(Cc2ccc(Cl)cc2)c(=O)c1=O	103	85	85	-29
CC(NC(=O)CCCn1c(=O)c2cccn2c2cccnc21)c1ccccc1 (stereo not given)	103	105	58	·
CC(C(=O)NCc1ccccc1F)n1ccc2cc(S(=O)(=O)N3CCCC3)ccc21 (stereo not given)	104	110	84	·
Cc1oc(C(C)(C)C)c(CN2CCCC2)c1C(=O)O	101	103	99	4
c1ccc(CNc2ncccc2-c2nc(-c3ccccc3)no2)cc1	95	·	·	-16
CN(C)N=Nc1cccc(/C=C/C(=O)O)c1	103	79	99	-29
CCOC(=O)C1CSC(CC(=O)Nc2ccc(OCC)cc2)C(=O)N1 (stereo not given)	100	87	80	-15
Following part
SMILES	GIV Gai3 FP	Sa growth inh	Sa growth inh second temp	HCMV NEC inh
COc1cc2c(c(OC)c1OC)C(=O)/C(=C/N(C)C)C2	111	98	86	-94
CCOc1ccc(Sc2cc(C(=O)NC(C)c3ccccc3)c3ccccc3n2)cc1 (stereo not given)	99	117	86	·
CC(=O)NC1C(=O)N(CCOc2ccccc2)c2ccccc21 (stereo not given)	106	101	91	·
O=C1C=C(NCc2ccc3c(c2)OCO3)CC(c2ccccc2)C1 (stereo not given)	97	78	68	-19
Cc1ccc2c(CC(=O)N3C(=O)c4cccc(N)c4C3=O)coc2c1	·	86	79	-23
O=C(Nc1ccc(-c2nc3ccccc3o2)c(O)c1)c1ccc2c(c1)OCCO2	104	·	·	-5
Nc1c(Nc2ccccc2C(=O)O)c2ccccc2oc1=O	99	95	94	-4
CCCCOC(=O)c1ccc(Nc2nc3ccc(C(=O)c4ccccc4)cc3n3cnnc23)cc1	107	115	85	·
CCCN1C(=O)c2[nH]nc(-c3ccc(F)cc3)c2C1c1ccccn1 (stereo not given)	105	109	79	-10
CC1=C/C(=N\S(=O)(=O)c2ccccc2)C=CC1=O	104	47	33	-15
Cc1ccccc1C1CCCN1S(C)(=O)=O (stereo not given)	101	·	·	7
Cc1cc2c(cc1S(=O)(=O)Nc1cc(C(F)(F)F)cc(C(F)(F)F)c1)OCC(=O)N2	110	80	79	·

Complete entries from above. Order of values: GIV Gai3 FP | Sa growth inh | Sa growth inh second temp | HCMV NEC inh
`COc1ccc(-c2noc(CSc3nnc(-c4ccncc4)n3-c3ccc(C)cc3)n2)cc1` reads 108 | 109 | 89 | -4
`C=CCn1c(=O)c(=O)n(Cc2ccc(C(=O)NC(C)CCc3ccccc3)cc2)c2ccccc21` (stereo not given) reads 99 | · | · | -2

(next part)
SMILES	GIV Gai3 FP	Sa growth inh	Sa growth inh second temp	HCMV NEC inh
NC(=O)N/N=C/c1ccc(-c2cccc(C(F)(F)F)c2)o1	105	106	91	-38
Cc1sc(NC(=O)c2cccs2)c(C(N)=O)c1C	·	135	91	1
CCCCN1CCc2c(c3ccccc3n2Cc2ccccc2)C1	108	87	58	·
CC(NC(=O)Cn1nnc(-c2cccc(C(F)(F)F)c2)n1)c1ccccc1 (stereo not given)	·	113	91	-9
Fc1ccc(-c2cn3cc(I)ccc3n2)cc1	95	·	·	-12
COC(CNC(=O)Cn1nc(Cc2ccncc2)c2ccccc2c1=O)OC	99	100	95	·
Cn1c(N)c(C(=O)NC2CCCCC2)c2nc3ccccc3nc21	105	90	78	-16
Cn1c(=O)cc(SCC(=O)N2CCN(c3ccccc3F)CC2)c2ccccc21	107	105	79	-27
CC1CCCC(NC(=S)NC(=O)C2CC2)C1C (stereo not given)	·	74	64	-10
COC(=O)c1ccc(C(=O)OC)c(NC(=O)C(C(C)C)N2C(=O)c3ccccc3C2=O)c1 (stereo not given)	97	91	89	-17
CCOc1cccc(C(c2c(C)n(C)n(-c3ccccc3)c2=O)c2c(C)n(C)n(-c3ccccc3)c2=O)c1OC	99	119	84	-23
CC(C)CCN1CCC(CNS(=O)(=O)c2csc(C(N)=O)c2)CC1	107	98	89	-18
